Resorufin fluor – compounds fluorescent in resorufin spectral region; Compound fluorescence, resorufin region 547/598 nm, buffer; hits give high values; max dye-equivalent concentration, M; 59,000 compounds, 0.04% hits; AID 588; active = above 10 nM dye equivalent; inconclusive = 1 to 10 nM; inactive = 1 nM or less; a few of its hits are not listed in these tables; also: highest value over a series up to 38 µM
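Read-out: intrinsic compound fluorescence at ex 547/em 598 nm after 15 min at RT in pH 8.0 Tris (100 mM). Values expressed as resorufin-equivalent concentration from per-plate standard series.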
A488 autofl – A488 region autofluorescence | compound autofluorescence, A488 spectral region, dye equivalency; hits give high values | max dye equivalency, M | 59,000 compounds, 0.1% hits | AID 591; active = above 10 nM dye equivalent; inconclusive = 1 to 10 nM; inactive = 1 nM or less; about half of its hits are not listed in these tables;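 also: highest value over a series up to 38 µM; compound alone in buffer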
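Autofluorescence read at ex 480/em 540 nm after 15 min RT in 100 mM Tris pH 8.0; compound signal normalized to A488 standard series on each plate, reported as dye-equivalent concentration at each test concentration.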
TSHR agonist – TSH receptor (human) agonism; P16473; HEK293-CNG-TSHR cells (CNG channel as cAMP sensor), membrane potential dye, cAMP; 73,000 compounds, 0.48% hits; Potency, µM (doses to about 57.1 µM), inactives show at the top dose activation, most hits filed as activators; active = well fitted activation curve of enough size with the parental cells flat; inconclusive = any curve in the parental cells; inactive = parental cells flat and receptor cells flat or falling; also: potency is read from the fitted curve at half-maximal effect; % of control where 0% means no effect; weak receptor curves with flat parental cells got no call and are not listed
Target sequence (P16473 whole entry, looked up): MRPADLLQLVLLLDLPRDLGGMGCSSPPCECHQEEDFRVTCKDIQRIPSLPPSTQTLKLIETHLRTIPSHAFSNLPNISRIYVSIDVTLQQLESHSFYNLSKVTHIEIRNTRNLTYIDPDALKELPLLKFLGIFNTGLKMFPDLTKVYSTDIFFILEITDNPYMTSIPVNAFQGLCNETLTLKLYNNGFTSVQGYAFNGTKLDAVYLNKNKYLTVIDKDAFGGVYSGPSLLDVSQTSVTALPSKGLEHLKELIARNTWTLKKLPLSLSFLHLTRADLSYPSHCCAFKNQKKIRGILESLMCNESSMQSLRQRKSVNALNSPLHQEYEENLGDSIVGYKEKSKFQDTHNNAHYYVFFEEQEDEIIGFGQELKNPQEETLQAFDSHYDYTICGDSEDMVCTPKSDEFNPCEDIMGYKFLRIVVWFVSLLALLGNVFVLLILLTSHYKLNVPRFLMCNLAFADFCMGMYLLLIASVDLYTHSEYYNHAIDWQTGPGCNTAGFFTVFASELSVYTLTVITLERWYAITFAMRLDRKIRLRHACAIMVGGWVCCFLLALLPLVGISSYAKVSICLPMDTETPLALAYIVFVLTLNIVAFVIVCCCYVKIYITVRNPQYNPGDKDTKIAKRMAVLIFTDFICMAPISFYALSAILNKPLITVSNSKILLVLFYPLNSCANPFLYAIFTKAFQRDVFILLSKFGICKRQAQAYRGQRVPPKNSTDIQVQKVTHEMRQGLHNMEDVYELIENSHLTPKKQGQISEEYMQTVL
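HEK 293 cells stably expressing TSHR and a cAMP-gated CNG channel; parental CNG-only cells as counterscreen. Cells preloaded 60 min with membrane potential dye plus 100 uM RO 20-1724, then compound 30 min; fluorescence read at 590 nm.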
AID923 – qHTS Assay for Allosteric/Competitive Inhibitors of Caspase-1: Spectroscopic Profiling in AFC Spectral Region. 75,000 compounds, 1.1% hits. compound fluorescence, AFC spectral region (405/520 nm); almost no hit is shown here. AID 923, 2007. Potency, µM (series often up to 57.5 µM), for inactives: at the highest dose fluorescence increase, actives largely listed as activators; active = well fitted activation curve with a large enough effect; inconclusive = small, poorly fitted or top-dose-only effect;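 also: potency is read from the fitted curve at half-maximal effect; 0% is about no effect; scaled to a free AFC standard on each plate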
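Compound autofluorescence profiled at 405 nm ex/520 nm em during kinetic caspase 1 run (50 nM enzyme, 5 uM Ac-WEHD-AFC, HEPES pH 7.5, 10 mM DTT). Titration up to 57 uM; baseline from regression intercept, normalized to AFC standard curve.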
A647 autofl – A647 region autofluorescence | Compound fluorescence, A647 channel (570/671 nm), Tris buffer | max dye-equivalent concentration, M | 59,000 tested, under 10 active; active means above 1 µM dye equivalent; inconclusive means 0.1 to 1 µM; inactive means 0.1 µM or less;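 also: values scaled relative to a standard on each plate; highest value over a series up to 38 µM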
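Compound fluorescence was measured in 100 mM Tris buffer, pH 8.0, after 15 min at room temperature, using 570 nm excitation and 671 nm emission filters. Signal was normalized to a per-plate Alexa 647 standard curve and expressed as dye-equivalent concentration at each compound concentration.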
* hit, by the source's call; i = inactive; u = inconclusive; x = not tested or not shown; & = joins results of further samples; [ ] = another dose, or the depositor's remark. An excerpt, so the mix of outcomes need not match the whole.

#	molecule	Resorufin fluor	A488 autofl	TSHR agonist	AID923	A647 autofl
1	COC(=O)Nc1ccc2c(c1)N(C(=O)CCN1CCN3CCCC3C1)c1ccccc1S2 (stereo not drawn)	i	i	12%	1.8%	1.1e-08
2	COCC(C)NC(=O)c1ccc(Cl)c(Cl)c1 (stereo not drawn)	i	i	-12%	-0.6%	1.4e-08
3	CSc1sc(C)cc1C1C(C#N)=C(N)N(c2cccnc2)C2=C1C(=O)CCC2 (stereo not drawn)	i	i	8%[11.4 µM]	9.2%	1.8e-08
4	CCOC(=O)c1[nH]cnc1C(=O)Nc1ccncc1	i	i	-18%	1.4%	4.8e-09
5	CCOC(=O)C1CCCN(C(=O)COC(=O)c2cc(=O)c3ccccc3o2)C1 (stereo not drawn)	i	i	6%	-0.2%	1e-09
6	Oc1ccc(O)cc1	i	i	2%&4%	5.1%	8.7e-09
7	CC(C)CC(C(=O)Nn1cnnc1)N1C(=O)c2ccccc2C1=O (stereo not drawn)	i	i	10%	1.7%	1e-09
8	Oc1ccccc1-c1nnc(SCCN2CCOCC2)n1Cc1ccccc1	i	i	2%	1.0%	2.8e-09
9	CC(C)c1nnc(NC(=O)CCC(=O)Nc2ccc(F)cc2)s1	i	i	x	0.3%	1.1e-08
10	COC(=O)c1ccc(COc2ccc3c(C)c(C)c(=O)oc3c2)o1	x	x	u	-0.3%	x
11	c1coc(-c2nnc3sc(Cc4cccs4)nn23)c1	i	i	x	x	1e-09
12	CCCc1cc(=O)n2[nH]c(NCc3ccccc3Cl)nc2n1	i	i	9%	-0.9%	1e-09
13	COc1ccc(NC(C)=O)cc1NC(=O)CSc1nnc(-c2ccccc2)n1N	i	i	16%	-0.2%	1e-09
14	O=C1OCCN1/N=C\c1ccc([N+](=O)[O-])o1	i	i	3%[25.6 µM]	3.4%[25.7 µM]	1.9e-08
15	C=CC(=O)N1C(=O)c2ccccc2S1(=O)=O	x	x	u	-1.6%[11.5 µM]	x
16	OC(COCc1cccs1)CN1CCN(c2ccccn2)CC1 (stereo not drawn)	i	i	0%	1.2%	1e-09
17	CC(=O)Nc1ccc(OCC(O)CN2CCN(c3cc(Cl)ccc3C)CC2)cc1 (stereo not drawn)	i	i	3%[11.4 µM]	-0.7%	3.2e-08
18	Cc1cc(Nc2ccc(Br)c(C)c2)n2nc(C)nc2n1	x	x	u	-1.2%	x
19	COCCn1c(SCC(N)=O)nc2c(c1=O)SC(C)C2 (stereo not drawn)	x	x	17%	2.9%	x
20	Cc1nn(C)cc1C1C2=C(CC(C)(C)CC2=O)OC2=C1C(=O)CC(C)(C)C2	i	i	x	x	5.8e-08

The list goes on:
#	molecule	Resorufin fluor	A488 autofl	TSHR agonist	AID923	A647 autofl
21	COc1cccc(C2CC(c3ccccc3Cl)Nc3nc(N)nn32)c1 (stereo not drawn)	i	i	-2%	-0.4%	3.4e-09
22	CCc1ccc2nc(N3CCN(C)CC3)c(C#N)cc2c1	i	i	u	11%	1e-09
23	C[C@](N)(C(=O)O)c1ccc(-c2nn[nH]n2)cc1	x	x	3%	-0.6%	x
24	Cc1cc(NC(=O)c2cc3nc(C4CC4)cc(C(F)(F)F)n3n2)no1	i	i	-21%	7.6%	3e-08
25	CC(C)OC(=O)CSc1n[nH]c(-c2cccnc2)n1	i	i	4%	-0.2%	1e-08
26	CC(C)(C)n1nnc(CCc2nnn(C(C)(C)C)n2)n1	i	i	x	x	3.3e-08
27	COCCNS(=O)(=O)c1ccc(C2CNC(=O)C2)cc1 (stereo not drawn)	x	x	1%	-1.5%	x
28	CC(C)(C)OC(=O)N[C@@H](Cc1ccccc1)c1nnc(SCC(=O)O)o1	i	i	-3%	-0.8%	6.6e-09
29	Cc1ccc(N(C(=O)C2CCCC2)C2C=CS(=O)(=O)C2)cc1C (stereo not drawn)	i	i	7%[11.4 µM]	0.8%	3.9e-09
30	O=C(c1cccn2c(=O)c3ccccc3nc12)N1CCN(c2ccccn2)CC1	i	i	2%	8.5%	2.6e-08
31	c1ccc(Cc2nnc3sc(-c4ccccn4)nn23)cc1	i	i	14%	-0.2%	3.3e-08
32	CCS(=O)(=O)N1CCN(c2nc(-c3ccccc3)cs2)CC1	i	i	26%	2.1%	1e-09
33	Cc1noc(C)c1C(=O)N1CCC2(CCCN(C(=O)Nc3cccc(F)c3)C2)CC1	i	i	2%	1.6%	1.4e-08
34	CCN1C(=O)c2ccc(C(=O)NCc3ccccc3)cc2C1=O	i	i	x	0.5%	1.9e-08
35	Cc1ccc(Cl)cc1N1CCN(C(=O)COc2ccc(S(=O)(=O)NC(C)C)cc2)CC1	x	x	19%	-0.3%	x
36	CCCc1cc(C(=O)NC2CCCCC2)no1	x	x	22%	-1.8%	x
37	CC(=O)NC1CC2CCCC(C1)N2C(=O)Nc1ccc(Cl)c(C(F)(F)F)c1 (stereo not drawn)	i	i	u	-2.2%	7.8e-09
38	Cc1csc(NC(=O)CCCSc2nc3ccccc3s2)n1	i	i	u	-0.4%	3.4e-08
39	CC(C)NC(=O)N1CCCC2(CCN(C(=O)c3cccc(F)c3)CC2)C1	i	i	-1%	5.6%	1e-09
40	CCn1c(C(=O)N2CCc3ccccc3C2)cc2sccc21	x	x	u	0.9%	x

By substructure, the compounds so far with an NH in an aromatic ring
#	molecule	Resorufin fluor	A488 autofl	TSHR agonist	AID923	A647 autofl
4	CCOC(=O)c1[nH]cnc1C(=O)Nc1ccncc1	i	i	-18%	1.4%	4.8e-09
12	CCCc1cc(=O)n2[nH]c(NCc3ccccc3Cl)nc2n1	i	i	9%	-0.9%	1e-09
23	C[C@](N)(C(=O)O)c1ccc(-c2nn[nH]n2)cc1	x	x	3%	-0.6%	x
25	CC(C)OC(=O)CSc1n[nH]c(-c2cccnc2)n1	i	i	4%	-0.2%	1e-08

The list continues:
#	molecule	Resorufin fluor	A488 autofl	TSHR agonist	AID923	A647 autofl
41	Cc1nc(NC(=O)CSc2nc3cccnc3n2C2CCCCC2)sc1C	i	i	10%	-0.7%	1.7e-08
42	Cc1cc(CN2CCN(CCC#N)CC2)c(O)c(C2(C)CCCCC2)c1	i	i	11%	0.4%	1.8e-09
43	COc1cccc(Cn2c(=O)cnc3cnc(Nc4cccc(OC)c4)nc32)c1	i	i	u	10%	1e-09
44	O=C1CCC(C(=O)Nc2ccc(OC(F)F)cc2)N1 (stereo not drawn)	i	i	-3%	0.1%	1e-09
45	CC(C)OCC(O)Cn1c(N2CCCC2)nc2c1c(=O)[nH]c(=O)n2C (stereo not drawn)	i	i	-4%	-0.8%	1.9e-08
46	CSc1nc(N)c2ncn([C@@H]3O[C@@H](COP(=O)(O)OP(=O)(O)O)[C@@H](O)[C@H]3O)c2n1	i	i	5%	-1.2%	1.7e-09
47	CCOC(=O)c1cn(CC(=O)Nc2ccc(CC)cc2)nn1	i	i	-4%	-0.1%	3.2e-08
48	COc1cccc(CNC(=O)C(CCSC)NS(=O)(=O)c2ccc3c(c2)oc(=O)n3C)c1 (stereo not drawn)	i	i	-1%	-1.0%	2.9e-08
49	O=C(NCc1cccc(F)c1)C1CCN(S(=O)(=O)Cc2ccccc2)CC1	i	i	-9%	-0.6%	1.7e-08
50	COc1cccc(-c2ccc3ncnc(NCCc4c[nH]c5ccc(OC)cc45)c3c2)c1	i	i	-1%	2.6%	2e-08
51	CC12CCC(C(=O)N3CCCCC3)(CC1=O)C2(C)C (stereo not drawn)	x	x	-6%	3.7%	x
52	CCOC(=O)C1=C(C)C(c2ccc(OC)cc2OC)NC(=O)N1 (stereo not drawn)	i	i	8%	0.1%	3.2e-08
53	O=C(Nc1sc2c(c1C(=O)O)CCCCC2)c1ccco1	x	x	9%	-2.3%	x
54	CC(C)c1cc(NC(=O)C(C)(C)C)cc(C(C)C)c1O	i	i	6%	1.0%	1.5e-08
55	CN1C(=O)CCC1(O)c1ccccc1 (stereo not drawn)	x	x	-7%	3.7%	x
56	COc1ccc(OC)c(-n2nnnc2SCC(=O)Nc2ccc3c(c2)OCCO3)c1	i	i	u	-2.3%	2.3e-09
57	CCOC(=O)Cc1csc(NS(=O)(=O)Cc2ccccc2)n1	i	i	25%	0.1%	2.8e-08
58	CCOc1cc(-c2nn3cnnc3s2)cc(OCC)c1OCC	i	i	23%	-0.8%	8.8e-09
59	CCOC(=O)c1c(NC(=O)CSc2nnc(-c3ccco3)o2)sc(C(C)=O)c1C	i	i	u	2.3%	1.6e-09
60	CCCCCC(N)=O	x	x	-9%	0.4%	x

New compounds follow
#	molecule	Resorufin fluor	A488 autofl	TSHR agonist	AID923	A647 autofl
61	O=C1C(=C2CCCCC2)SC(=S)N1Cc1ccco1	x	x	2%[11.4 µM]	0.1%	x
62	Cc1ccc(-c2nc(CS(=O)CC(=O)NCCCN3CC(C)CC(C)C3)c(C)o2)cc1 (stereo not drawn)	x	x	10%	-2.3%	x
63	CCN(CC)CCOc1cc2c(nn1)Oc1ccccc1N2C	i	i	-6%	11%	2.9e-08
64	CSC1=Nc2sc3c(c2C2=NCCN12)CC(C)(C)OC3	i	i	x	x	5.8e-08
65	CCc1cc2c(=O)c(-c3nc4ccccc4[nH]3)coc2c(CN2CCC(C)CC2)c1O	x	x	11%	0.0%	x
66	CC(=O)Nc1ccc(S(=O)(=O)n2cnc(C)c2)cc1	i	i	0%	0.3%	4.1e-08
67	COC(=O)c1ccc(C)c(NC(=O)CN2C(=O)c3ccccc3S2(=O)=O)c1	i	i	-10%	2.0%	1e-09
68	Cc1cccc(N2CC(c3nc4ccccc4n3C)CC2=O)c1C (stereo not drawn)	x	x	4%	-1.5%	x
69	Cc1ccc(CN2C3=NC(=O)CN3c3ccccc32)cc1	i	i	x	1.6%	9.2e-09
70	O=C(NCc1nc2ccccc2[nH]1)c1cc2ccccc2oc1=O	i	i	-4%[11.4 µM]	1.5%	8e-09
71	O=C(Nc1ccc2c(c1)OCO2)C(c1ccccc1)N1CCC2(CC1)OCCO2 (stereo not drawn)	i	i	4%	1.6%	2.2e-08
72	CCOC(=O)CSc1nc2c(c(=O)n(Cc3ccccc3Cl)c(=O)n2C)n1C	i	i	7%	-0.8%	5.3e-08
73	Cc1ccc2nc(C3CCN(C(=O)NCc4ccccc4)CC3)[nH]c2c1	i	i	0%	0.9%	3e-09
74	COCC(=O)n1nc(-c2ccccc2)nc1NCc1ccc(F)cc1	i	i	x	0.0%	2e-08
75	O=C(c1cccc(Cl)c1Cl)N1CCN(c2ccccn2)CC1	i	i	-1%	1.1%	1e-09
76	COCCn1nnnc1CN1CCC(NC(=O)c2ccc(Br)cc2)CC1	i	i	-6%	-1.0%	4.5e-08
77	CC(=O)C1=C(O)C(=O)N(CC(=O)O)C1c1ccccc1Cl (stereo not drawn)	x	x	-20%	0.0%	x
78	COc1ccc2[nH]c(C)c(C(=O)CN3CC(C)OC(C)C3)c2c1 (stereo not drawn)	i	i	x	x	1.9e-08
79	CCN1CCN(C(c2cccs2)C(C)NC(=O)c2cccnc2)CC1 (stereo not drawn)	i	i	-17%	3.5%	3.7e-08
80	CCCCn1c(SCc2cc(=O)n3ccsc3n2)nc2cc(C(=O)OC)ccc2c1=O	i	i	9%	-2.4%	4.6e-08

(further entries)
#	molecule	Resorufin fluor	A488 autofl	TSHR agonist	AID923	A647 autofl
81	CCCC(=O)OC(=O)CCC	x	x	-10%	-0.6%	x
82	Cn1c(=O)c2c(nc(CN3CCOCC3)n2CCc2ccccc2)n(C)c1=O	i	i	u	0.4%	5.5e-09
83	CCOC(=O)C1(C)NC(c2ccc(OC)c(OC)c2)C2C(=O)N(CC)C(=O)C21 (stereo not drawn)	i	i	-2%	0.6%	5.2e-08
84	CC1=C(C(=O)Nc2ccccc2)C(c2ccco2)n2ncnc2N1 (stereo not drawn)	i	i	3%	2.8%	1.8e-08

Assay outcomes from PubChem.
